# LASV entry inh: qHTS for Inhibitors of binding or entry into cells for Lassa Virus; Lassa virus pseudotype entry inhibition, cell reporter; control for the full effect not named in the record; Potency, µM (titrated, usually from 37.9 µM), inactives show at the top dose activity change, negative = inhibition, actives largely listed as inhibitors; actives 1.2% (n = 300,000); active means well fitted inhibition curve with a large enough effect; inconclusive means small, poorly fitted or top-dose-only effect, or effect the other way; inactive means flat fitted curve, though single readings scatter; tested in HEK293 cells; also: % is scaled to controls: 0 for no effect and ±100 for the full control effect; nearly all actives have a fitted effect of over 50% in size; luciferase read-out
# Cruzain inh Det: qHTS Assay for Promiscuous and Specific Inhibitors of Cruzain (with detergent); purified cruzain, Z-FR-AMC fluorescence, 0.01% Triton; actives 0.43% (n = 200,000); Potency, µM, for the others: max response, negative = inhibition, hits mostly inhibitors;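 also: plate controls were neutral wells for no effect and buffer without enzyme for full effect; nearly all actives have a fitted effect of over 40% in size; top concentration of the series not given in the record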
# Target sequence (P25779 123-467 limits assumed): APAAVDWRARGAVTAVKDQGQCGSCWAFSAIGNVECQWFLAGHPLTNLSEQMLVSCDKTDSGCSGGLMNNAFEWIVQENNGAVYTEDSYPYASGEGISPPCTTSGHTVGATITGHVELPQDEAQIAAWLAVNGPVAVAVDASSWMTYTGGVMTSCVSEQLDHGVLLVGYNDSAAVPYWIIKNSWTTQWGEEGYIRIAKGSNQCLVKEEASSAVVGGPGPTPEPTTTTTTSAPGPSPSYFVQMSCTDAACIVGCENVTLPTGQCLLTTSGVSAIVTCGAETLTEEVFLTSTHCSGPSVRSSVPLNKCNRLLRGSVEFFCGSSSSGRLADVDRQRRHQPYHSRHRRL
#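 Cysteine protease activity tested under reducing, mildly acidic conditions (100 mM sodium acetate pH 5.5, 5 mM DTT) plus 0.01% Triton X-100. Cruzain 1.5 nM; substrate Z-FR-AMC 2 uM; 15 min compound preincubation at room temperature.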
# RE007 growth inh: qHTS Assay for Inhibitors of the HIV-1 protein Vpr. actives 0.21% (n = 360,000). Potency, µM (top dose mostly 92.2 µM), without a hit: top-dose activity change, negative = less growth. S. pombe RE007 Vpr strain, BacTiter-Glo ATP luminescence, 24 h; control for the full effect not named in the record; active = well fitted falling curve with a large enough effect; inconclusive = small, poorly fitted or top-dose-only effect; inactive = no such curve, though single readings can be large or run the other way;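 also: % is scaled to controls: 0 for no effect and ±100 for the full control effect; nearly all actives have a fitted effect of over 50% in size; the assay follows cell death caused by Vpr and the record does not say whether a fall means rescue or toxicity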
#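 Fission yeast strain RE007, carrying one chromosomally integrated HIV-1 vpr copy, was seeded at OD 0.01 in PMG+AL medium with 23 nL pinned compound. After 24 h at 30 °C and 99% humidity, viability was read by BacTiter-Glo luminescence.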
# 2A StopGo: High Throughput Screening for Foot and Mouth Disease Virus Antivirals | Potency, µM (highest dose often 57.9 µM), inactives show at the highest dose signal change, negative = less light | actives 1.2% (n = 410,000) | human cells with a luciferase reporter of 2A StopGo recoding; control for the full effect not named in the record; active = well fitted falling curve with a large enough effect; inconclusive = small, poorly fitted or top-dose-only effect; inactive = no such curve, though single readings can be large or run the other way; tested in HEK293T cells; also: % is scaled to controls: 0 for no effect and ±100 for the full control effect; nearly all actives have a fitted effect of over 45% in size; luciferase light after 4 h
# Cruzain inh noDet: qHTS Assay for Promiscuous and Specific Inhibitors of Cruzain (without detergent) | Cruzipain (Trypanosoma cruzi), P25779 | purified cruzain, Z-FR-AMC fluorescence, no detergent | Potency, µM, for inactives: max response, negative = inhibition, most hits filed as inhibitors | actives 2.3% (n = 200,000);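 also: plate controls were enzyme without inhibitor for no effect and buffer without enzyme for full effect; nearly all actives have a fitted effect of over 40% in size; top concentration of the series not given in the record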
#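 Detergent-free condition (0.00005% Triton X-100) in acetate buffer pH 5.5 with DTT. 1.5 nM enzyme and compound were pre-mixed 15 min, then 2 uM Z-FR-AMC substrate added; reaction progress from fluorescence change between first and third reads (60 s).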
# NS1 function inh: qHTS Assay for Inhibitors of Influenza NS1 Protein Function; S. cerevisiae slowed by influenza A NS1, growth recovery by OD600; Potency, µM (series often up to 46.1 µM), without a hit: at the top dose activity, positive = more growth; actives 0.4% (n = 270,000); active means well fitted rising curve with a large enough effect; inconclusive means small, poorly fitted or top-dose-only effect; inactive means no such curve, though single readings can be large or run the other way; also: nearly all actives have a fitted effect of over 50% in size
#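 In this qHTS, NS1 from influenza A is expressed in budding yeast, where it slows growth. Cells are switched from glucose to 2% galactose medium (pH 6.0, -URA), treated with compound, and growth recovery is read at OD600.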
# Marburg entry inh: qHTS for inhibitors of binding or entry into cells for Marburg Virus. Potency, µM (top dose mostly 37.8 µM), inactives show at the top dose activity change, negative = inhibition, usual class: inhibitors. Marburg virus pseudotyped entry inhibition, cell reporter; control for the full effect not named in the record; about a third of the inactives were read at about 46 µM. actives 1.8% (n = 300,000). AID 540276, 2011; active = well fitted inhibition curve with a large enough effect; inconclusive = small, poorly fitted or top-dose-only effect, or effect the other way; inactive = flat fitted curve, though single readings scatter; tested in HEK293 cells; about a fifth of its hits are not listed in these tables; also: % is scaled to controls: 0 for no effect and ±100 for the full control effect; luciferase read-out
# SARS PLP yeast: qHTS of Yeast-based Assay for SARS-CoV PLP; S. cerevisiae expressing SARS-CoV PLpro, growth rescue; control for the full effect not named in the record; Potency, µM (doses to about 32.9 µM), for the others: at the highest dose activity, positive = growth rescue; actives 0.19% (n = 330,000); active means well fitted rising curve with a large enough effect; inconclusive means small, poorly fitted or top-dose-only effect; inactive means no such curve, though single readings can be large or run the other way; also: 0% is about no effect; nearly all actives have a fitted effect of over 55% in size; growth read by luminescence after 48 h
# * hit, by the source's call; u = inconclusive; x = no result given; & = joins results of further samples; ! = not confirmed by another sample; [ ] = another dose, or the depositor's remark. Unless noted, calls follow the shape of the dose curve; as a rule, active = well fitted curve in the direction sought with a large enough effect; inconclusive = small, poorly fitted or top-dose-only effect, or another doubt; inactive = no such curve, though single readings can be large; an effect the other way counts as inactive or inconclusive. Potency is read from the fitted curve at half-maximal effect.
SMILES,LASV entry inh,Cruzain inh Det,RE007 growth inh,2A StopGo,Cruzain inh noDet,NS1 function inh,Marburg entry inh,SARS PLP yeast
COc1ccc(-c2cc(C(F)F)n3ncc(C(=O)N4CCSCC4)c3n2)cc1,-10%,-7.3%,0%,-13%,-10%,-30%,-22%,-7%
COc1ccc(/C(N)=N/O)cc1O,14%,0.0%,9%,-17%,10%,13%,-15%,18%
Cc1ccc(N2C(=O)CS(=O)(=O)C23C(=O)N(Cc2ccccc2C)c2ccccc23)cc1Cl (stereo not drawn),u,-4.6%,x,-25%,2µM*,x,x,x
O=C(CCC1CCCCC1)NC1=NCCS1,u,-0.8%,3%,-18%,2%,-16%,6%,-77%
COc1ccc(OC)c(NC(=O)CCNS(=O)(=O)c2cccc3nsnc23)c1,-13%&12%[46.1 µM],-4.3%,-8%,-4%&-12%,-5%,17%,3%&21%[46.1 µM],0%
CN(CC(=O)Nc1ccccc1Br)C(=O)CCc1nc2ccccc2c(=O)[nH]1,u,x,-21%,-4%,x,x,4%,-6%
CC(=O)NCCC(=O)Nc1nc2c(ccc3ccccc32)s1,-15%[46.1 µM],x,3%,-21%,x,4%,3%[46.1 µM],-6%
Cc1ncccc1C(=O)N1CCCC(CNC(=O)c2ccc(-c3ccccc3)cc2)C1 (stereo not drawn),x,x,11%,-24%,x,-5%,x,1%
CC(=O)C1=C(O)C=C(c2ccco2)CC1c1ccco1 (stereo not drawn),2%,-7.9%,-15%,2%,-19%,9%,-13%,-6%
O=C(NCc1ccncc1)c1ccc(Cl)c(S(=O)(=O)N2CCCCC2)c1,-6%,x,7%,18%,x,3%,u,2%
CC(Cn1cncn1)C(=O)N1CCN(S(=O)(=O)c2ccc(Cl)cc2)CC1 (stereo not drawn),0%,x,-3%,-1%,x,17%,7%[46.1 µM],3%
CCn1cc(C(=O)N2CCN(c3cccc(C)c3)C(C)C2)c(=O)c2cc(S(=O)(=O)N3CCOCC3)ccc21 (stereo not drawn),5%[46.1 µM],-8.8%,x,0%,26%,x,-6%[46.1 µM],x
COc1cccc(N2C(=O)C(CC(=O)Nc3ccccc3)N(CCc3sccc3C)C2=O)c1 (stereo not drawn),u,-7.3%,x,-4%,8%,x,u,x
CCNC(=O)CSc1nnc(-c2cccs2)o1,1%[46.1 µM],x,7%,6%,x,x,0%[46.1 µM],-1%
O=Cc1ccccc1Oc1ccccc1,-6%,5.8%,1%,-9%,8%,14%,4%,2%
COC(=O)c1c(NC(=O)C2CC2)sc2c1CCN(C(C)=O)C2,x,-2.2%,12%,-6%,-15%,3%,x,-4%
CS(=O)(=O)c1ccc2nc(NC(=O)Nc3ccccc3F)sc2c1,x,x,-3%,44%[activator],x,5%,x,3%
CCOc1ccc(CN(C)CC(=O)Nc2cccc3ccccc23)cc1OC,u,x,1%,u,x,x,u,-4%
COc1cc(CC(=O)Nc2ccc(Cl)c(C(F)(F)F)c2)cc(OC)c1OC,u,-8.4%,-1%,u,u,-35%,u,8%
O=C(O)c1cc(-c2ccc(N3CCOCC3)cc2)nn1-c1ccccc1Cl,-18%[46.1 µM],x,1%,4%,x,x,-7%[46.1 µM],8%
O=C(O)c1cc(N2CCCC2)ccn1,4%,x,13%,-6%,x,x,u,x
COCc1cc(/C=N\NC(=O)COc2ccc(Cl)cc2)ccc1OC,u,-6.2%,3%,-17%,u,4%,-41%,-7%
Clc1ccccc1-c1ccc2ncnc(NCc3cccnc3)c2c1,x,-3.4%,x,-12%&-15%,2%,x,x,6%&-12%
COc1ccc(-c2nc(NC(C)=O)sc2-c2ccccc2)cc1,u,x,3%,-6%,x,11%,-17%[46.1 µM],0%
Cn1c(Cl)c(/C=N/OC(=O)c2cccc(Cl)c2)c2ccccc21,15%,-2.0%,-4%,-21%,u,8%,7%[46.1 µM],1%
O=C(Nc1ccc(F)cc1)c1ccc(-n2cnc3cccnc32)cc1,28%[46.1 µM],-5.0%,x,u,-3%,x,x,x
S=C(NCc1ccccc1)NC1CCCCC1,x,x,0%,37%[activator],x,-7%,x,1%
O=C(CSc1nc2ccccc2s1)Nc1cc(S(=O)(=O)N2CCOCC2)ccc1O,11%,-13%,15%,-1%,0%,2%,0%,13µM*
COc1ccc(OC)c(NS(=O)(=O)c2ccc3c(c2)CCCN3C(=O)C2CCC2)c1,-2%[46.1 µM],-4.1%,x,-24%,10%,x,x,x
O=C(CN1C(=O)CSc2ncccc21)Nc1ccccc1F,x,x,1%,5%,x,5%,x,-7%
O=C(OCc1cc(=O)n2nc(C3CC3)sc2n1)c1cccc(NC(=O)c2ccccc2Cl)c1,u,0.8%,x,u,-9%,x,x,x
c1ccc2c(c1)OCC(C1=NCCN1)O2 (stereo not drawn),2.6µM*!,6.4%&-3.7%,-17%[18.4 µM],u,3%&-11%,12%&0%,u,2%
COc1ccc(CCNC(=O)CCNS(=O)(=O)c2cccc3nonc23)cc1OC,9%,2.4%,-13%,-19%,-5%,-1%,-5%,7%[6.58 µM]
CCC(CC)c1nn2c(=O)cc(COc3ccc(NC(=O)c4ccccc4Cl)cc3)nc2s1,u,-1.1%,x,0%,-15%,x,u,x
O=C(N(c1ccccn1)c1ccccn1)C12CC3CC(CC(C3)C1)C2,u,x,0%,-10%,x,2%,7%[46.1 µM],-1%
CCCOC1CCCN(C(=O)c2ccc(OC3CCN(Cc4ccccn4)CC3)cc2)C1 (stereo not drawn),1%[46.1 µM],x,4%,-25%,x,14%,-1%[46.1 µM],-3%

# Entries of single compounds as entered above. Screens in order: LASV entry inh	Cruzain inh Det	RE007 growth inh	2A StopGo	Cruzain inh noDet	NS1 function inh	Marburg entry inh	SARS PLP yeast
# O=C(CSc1nc2ccccc2s1)Nc1cc(S(=O)(=O)N2CCOCC2)ccc1O is listed with 11%	-13%	15%	-1%	0%	2%	0%	13µM*
# CCCOC1CCCN(C(=O)c2ccc(OC3CCN(Cc4ccccn4)CC3)cc2)C1 (stereo not drawn) is listed with 1%[46.1 µM]	x	4%	-25%	x	14%	-1%[46.1 µM]	-3%
# O=C(OCc1cc(=O)n2nc(C3CC3)sc2n1)c1cccc(NC(=O)c2ccccc2Cl)c1 is listed with u	0.8%	x	u	-9%	x	x	x
# CCC(CC)c1nn2c(=O)cc(COc3ccc(NC(=O)c4ccccc4Cl)cc3)nc2s1 is listed with u	-1.1%	x	0%	-15%	x	u	x

# Going on with the list:
SMILES,LASV entry inh,Cruzain inh Det,RE007 growth inh,2A StopGo,Cruzain inh noDet,NS1 function inh,Marburg entry inh,SARS PLP yeast
CCc1ccccc1N(C)C(=O)Nc1cn(CC(C)C)c(=O)c2ccccc12,-14%[46.1 µM],-2.4%,x,-17%,-3%,x,x,x
Cc1ccc(CNC(=O)CNC(=O)c2ccco2)cc1,-15%,x,-2%,23%,x,1%,9%,3%
O=C(NCCc1ccccc1F)N[C@@H](Cc1ccccc1)C(=O)O,x,x,5%,4%,x,-8%,x,1%
COc1ccc(N(C(=O)Cn2nnc3ccccc32)C(C(=O)NCc2ccco2)c2ccncc2)cc1 (stereo not drawn),1%,x,-3%,6%,x,-9%,-3%[46.1 µM],2%
CS(=O)(=O)N(CC(=O)NCc1ccc2c(c1)OCO2)Cc1ccccc1,-28%,5.4%,22%,-20%,8%,1%,7%,4%
C=CCNC(=O)c1onc(CSc2ccccc2F)c1C(=O)O,x,2.7%,-2%,-15%,-3%,12%,x,5%
COCCNC(=O)C(c1ccc(O)cc1)N(C(=O)CCC(=O)Nc1nccs1)c1ccc(C)cc1 (stereo not drawn),-26%,x,-11%,-8%,x,1%,1%[46.1 µM],1%
CC(C)Oc1ccc(CNC(=O)C2COc3ccccc3C2)cc1 (stereo not drawn),-13%[46.1 µM],-1.7%,x,41%[activator],1%,x,x,x
O=C(Nc1ccc(F)cc1)C1CC2CCC1C2 (stereo not drawn),x,x,-4%,16%,x,-4%,x,0%
CC(C)Oc1cccc(C(=O)C2CCCN(C(=O)c3ccnn3C)C2)c1 (stereo not drawn),x,x,-2%,-3%,x,3%,x,0%
Cc1ccc(CN(CC(=O)NCc2ccccn2)S(=O)(=O)c2ccccc2)cc1,u,x,8%,4%,x,-28%,-12%,2%
COc1ccc(NC(=O)CSC2=NC(=O)CC(C)=N2)cc1,0%,1.8%,-14%,-4%,-16%,-6%,27%,8%
COc1ccc(/C=N/NC(=O)c2ccncc2)cc1[N+](=O)[O-],0%,x,5%,-23%,x,x,u,0%
COc1cc(O)oc1C=Nc1ccc(C(F)(F)F)cc1,8%,-16%,4%,0%,-12%,-4%,14%,-5%
COc1ccc2[nH]c(=O)c(CN(Cc3nnnn3Cc3ccco3)C3CCCCC3)cc2c1,-13%,7.1µM*,15%,-10%,7.9µM*,u,-12%&-12%,22%
COc1ccc(OC)c(NC(=O)C(CC(C)C)NC(=O)C2CCCCC2)c1 (stereo not drawn),-2%,-6.6%,2%,16%,1%,-2%,10%,x
CCN(CC)CCOC(=O)/C=C/c1ccccc1,x,x,5%,-5%,x,1%,2%,0%
O=Cc1cccn1-c1ccc(O)cc1,3%,x,4%,-8%,x,-3%,-1%[46.1 µM],-1%
CC(=O)Nc1cccc(-c2nc3ccccc3s2)c1,10%[46.1 µM],x,-7%,13%,x,-58%,u,-3%
Cc1cccc(NC(=O)CCSc2nnc(Cc3ccccc3)o2)c1,-13%,-5.1%,-5%,15%,-2%,-18%,-14%,-7%
CSc1n[nH]c(=O)n1-c1cccc(Cl)c1,u,x,3%,4%,x,2%,u,1%
C/C(CC(=O)Nc1ccc(OCc2ccccc2)cc1)=N\NC(=O)C(=O)Nc1cccc(C)c1,11%,-2.1%,x,16%,32µM*,15%,9%,-9%
